Screening results from PubChem BioAssay.
D2 agonist: human D2 receptor agonism in beta-arrestin assay; P14416; DiscoveRx PathHunter D2 beta-arrestin, luminescence, 90 min; 100% = 57 uM dopamine signal; activation, % (test concentration not listed); 360,000 compounds, 0.084% hits; in the data active = activation above about 40%; inconclusive = about 15% to 40%; inactive = below about 15%; also: compound concentration not given in the record; the text of the record calls up to 30% inactive
Target sequence (P14416 whole entry, looked up): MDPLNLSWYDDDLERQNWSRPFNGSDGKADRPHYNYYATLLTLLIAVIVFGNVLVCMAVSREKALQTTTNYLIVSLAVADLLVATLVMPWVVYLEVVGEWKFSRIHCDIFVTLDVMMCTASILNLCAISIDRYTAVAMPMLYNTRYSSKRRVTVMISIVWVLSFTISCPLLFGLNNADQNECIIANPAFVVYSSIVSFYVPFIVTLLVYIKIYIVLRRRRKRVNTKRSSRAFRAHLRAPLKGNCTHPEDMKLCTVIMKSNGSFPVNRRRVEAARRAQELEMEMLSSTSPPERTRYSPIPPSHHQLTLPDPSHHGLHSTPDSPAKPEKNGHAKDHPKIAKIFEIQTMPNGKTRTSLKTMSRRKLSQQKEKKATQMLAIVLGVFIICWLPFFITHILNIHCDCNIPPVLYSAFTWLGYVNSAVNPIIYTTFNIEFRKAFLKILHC
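DiscoveRx PathHunter D2 beta-arrestin cells (2,100/well) attached overnight, then compound-stimulated 90 min at 37 C in HBSS/10 mM HEPES/0.1% Tween-20 buffer; beta-galactosidase complementation read by luminescence after 1 h at ambient temperature. Dopamine 57 uM final (EC100) as control.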
ClpP mod: qHTS Assay for Activators of ClpP; ATP-dependent Clp protease proteolytic subunit (Bacillus subtilis (strain 168)), P80244; purified B. subtilis ClpP, FRET peptide cleavage, 20 min; Potency, µM (top dose mostly 57.5 µM), inactives show at the highest dose activity change, negative = active; 340,000 compounds, 1.9% hits; AID 651965, 2013; active = well fitted falling curve with a large enough effect; inconclusive = small, poorly fitted or top-dose-only effect; inactive = no such curve, though single readings can be large or run the other way; also: potency is read from the fitted curve at half-maximal effect; the source files actives as falling curves though it sought activators and does not explain the sign; nearly all actives have a fitted effect of over 65% in size; many hits overshoot -100%
Target sequence (P80244 whole entry, looked up): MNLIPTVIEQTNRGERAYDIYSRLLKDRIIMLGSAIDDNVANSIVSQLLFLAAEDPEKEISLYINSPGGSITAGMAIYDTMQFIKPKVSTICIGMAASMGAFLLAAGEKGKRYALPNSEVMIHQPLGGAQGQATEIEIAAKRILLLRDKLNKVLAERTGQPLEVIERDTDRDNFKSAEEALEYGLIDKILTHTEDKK
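Buffer: 100 mM Tris/HCl pH8, 100 mM KCl, 0.05% low protease BSA, 2.5% glycerol, 0.01% Tween-20. ClpP 10 microg/mL final; 20 min RT; delta FRET normalized to ADEP and DMSO controls.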
Sfp PPTase inh: blocks B. subtilis Sfp PPTase activity | Q9F4F7 | Biochemical Sfp PPTase activity, qHTS | Potency, µM, for the others: max response, negative = inhibition, actives largely listed as inhibitors | 310,000 compounds, 3.5% hits | AID 1490; active = well fitted inhibition curve with a large enough effect; inconclusive = small, poorly fitted or top-dose-only effect, or another doubt; inactive = no such curve, though single readings can be large or run the other way;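 also: the enzyme is Sfp with the accession as filed and its product quenches rhodamine fluorescence; potency is read from the fitted curve at half-maximal effect; 0% = enzyme reaction without inhibitor and -100% = no enzyme wells; top concentration of the series not given in the record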
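Compounds were incubated with enzyme (final 15 nM) for 15 min at room temperature before substrate addition started the reaction. Fluorescence at 525 nm excitation, 598 nm emission was recorded immediately and after 30 minutes.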
gsp antagonist: antagonists of gsp mutant (McCune-Albright syndrome). 340,000 compounds, 0.4% hits. gsp-mutant cells, cAMP HTRF, 30 min; control for the full effect not named in the record. Potency, µM (titrated, usually from 76.9 µM), for the others: top-dose activity change, negative = inhibition, actives largely listed as inhibitors. AID 624288; active = falling curve of any shape with a large fitted effect; inconclusive = falling curve, mostly with a smaller effect; inactive = flat or rising curve; cell line not stated here;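 also: intracellular cAMP measured with PDE inhibitor Ro 20-1724 present during compound exposure; potency is read from the fitted curve at half-maximal effect; % is scaled to controls: 0 for no effect and ±100 for the full control effect; nearly all actives have a fitted effect of over 65% in size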
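HTRF cAMP measurement after 30 min RT detection following 30 min, 37C compound treatment alongside […] (added as 300 uM solution) in G418-selected cells seeded at 2000/well and grown 16–24 h.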
Menin MLL FP FL: inhibitors of human menin-MLL interaction, wild-type MLL peptide. Fluorescence polarization, fluorescein-MLL peptide displacement from menin. FP activity change, % at 61.4 µM. 290,000 tested, under 10 active. AID 1766; inconclusive = falling polarisation curve, or a change in total fluorescence; inactive = total fluorescence flat and polarisation flat or rising; no compound was filed as active; the % refers to the polarisation; negative = inhibition;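 also: % of control where 0% means no effect; inhibitors lower the polarisation; unlabelled MLL peptide was the positive control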
PINK1 modulator: PINK1 expression modulation; PINK1 immunofluorescence, high-content cytometry, 24 h; Potency, µM (top dose mostly 76.6 µM), without a hit: top-dose activation (PINK1 increase), most hits filed as activators; 410,000 compounds, 0.2% hits; active = well fitted activation curve with a large enough effect; inconclusive = small, poorly fitted or top-dose-only effect; inactive = flat fitted curve, though single readings scatter; cell line not stated here;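 also: potency is read from the fitted curve at half-maximal effect; % of control where 0% means no effect; nearly all actives have a fitted effect of over 65% in size; a mitochondrial uncoupler was the plate control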
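Decision-based qHTS: stable cells, 24 h exposure to five compound concentrations, CCCP as control. Fixed cells stained for PINK1 plus nuclear, mitochondrial and cell markers, cytometer read.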
gsp agonist: gsp mutant agonism; gsp mutant cells, cAMP HTRF, 30 min; control for the full effect not named in the record; Potency, µM (series often up to 76.9 µM), for the others: at the highest dose activation (cAMP increase), most hits filed as activators; 340,000 compounds, 0.13% hits; active = well fitted activation curve with a large enough effect; inconclusive = small, poorly fitted or top-dose-only effect, or another doubt; inactive = no such curve, though single readings can be large or run the other way; cell line not stated here;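 also: phosphodiesterase inhibitor Ro 20-1724 added with compounds to block cAMP breakdown; potency is read from the fitted curve at half-maximal effect; nearly all actives have a fitted effect of over 60% in size; about a fifth of the inactives were tested at one dose only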
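Cells in DMEM/10% FBS with G418 were pretreated with compounds in DMSO plus […] (300 uM stock) for 30 min at 37C. cAMP was measured by HTRF (cAMP-d2 plus anti-cAMP antibody-K) after 30 min at room temperature.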
* marks the source's active call; other numbers are inactive results; ? = inconclusive; · = not tested or not shown; & = joins results of further samples; [ ] = remark or other dose.

No.	Compound	Sfp PPTase inh	D2 agonist	gsp antagonist	PINK1 modulator	gsp agonist	Menin MLL FP FL	ClpP mod
1	COc1ccc(-n2nc(C(N)=O)c(O)cc2=O)cc1	7%	2.6	4%	1.3%	-1%	4.1	·
2	Cc1ccc(N(Cc2cc3cccc(C)c3[nH]c2=O)S(=O)(=O)c2ccccc2)c(C)c1	2%	2.9	-13%	9.6%	?	3.0	-9.2%
3	Cc1cccc(OC2(c3ccccc3)OC(=O)c3ccccc32)c1C (stereo unspecified)	5%	-3.3	-5%	5.5%[38.3 µM]	-9%	3.5	-0.4%
4	COc1cccc(/C=N/NC(=O)c2ccoc2C)c1	3%	-0.1	11%	2.3%	59%	1.4	·
5	Cn1c(N)c(C(=O)COc2ccc(Cl)cc2Cl)c(=O)n(C)c1=O	11%	-0.1	-4%	9.8%	?	-0.4	·
6	CCN=c1scc(-c2ccco2)n1/N=C/c1ccc(O)cc1	35µM*	1.2	-4%	6.4%	1%	6.3	1.9%
7	COC(=O)CC1C(=O)NCCN1C(=S)Nc1cc(C)cc(C)c1 (stereo unspecified)	-2%	-1.4	-3%	2.0%	-14%	-0.9	0.6%
8	COc1ccc(Oc2cccc(Cl)c2CNC(=O)c2ccccc2C(=O)O)cc1	9%	-4.4	3%	0.4%	-42%[inhibitor]	0.9	-1.7%
9	CCOC(=O)C1CCN(c2nc3cc(OC)ccc3cc2C#N)CC1	?	-2.0	?	2.7%	2%	0.8	?
10	CN(CC(=O)Nc1ccc(F)cc1)C(=O)CSc1nccn1C	·	-3.5	8%	-1.6%	21%[15.4 µM]	·	·
11	CC(C)(C)c1ccc(C(=O)NCCC(=O)NCc2ccc(F)cc2)cc1	·	-1.4	·	1.8%	-6%	·	3.2%
12	N#CC1(Nc2cccc(Cl)c2)CCCC1	·	-2.3	2%	4.3%	-28%	·	·
13	CC(C)CN(CC(C)C)C(=O)c1cc(S(=O)(=O)N2CCCCC2)c[nH]1	2%	0.2	-6%	-1.3%	?	·	0.2%
14	O=C(O)c1ccc(Cl)c(S(=O)(=O)Nc2ccc(OCc3ccccc3)cc2)c1	7%	-3.7	3%	0.3%	14%[15.4 µM]	4.5	·
15	Cc1c([N+](=O)[O-])c(C/C=N/O)nn1C	-1%	-0.8	-5%	2.8%	-2%[15.4 µM]	1.5	0.5%
16	O=C1Nc2ccccc2Nc2ncccc21	17%	-2.7	8%	-0.2%	-64%[inhibitor]	-3.9	0.6%
17	COc1cccc(/C=C2\N=C(c3c(-c4ccccc4)noc3C)OC2=O)c1OC	-1%	3.3	4%	-1.2%[38.3 µM]	-2%	4.5	-1.0%
18	CN(C)c1ccccc1-c1cc(NC=O)c2ncc(-c3cccc(C(F)(F)F)c3)n2c1	·	-3.6	·	7.3%	·	·	?
19	NS(=O)(=O)c1ccc(CNC(=O)c2ccc(Cl)c([N+](=O)[O-])c2)cc1	2%	-0.5	-19%	-1.0%	-38%[inhibitor]	0.6	0.5%
20	CN(C=C1C(=O)CC(C)(C)CC1=O)CCN1CCNCC1	3%	0.4	1%	-1.7%	-6%	4.1	-0.6%
21	O=C(Cn1cnc2c(OCc3ccccc3)ncnc21)NCc1ccccn1	·	-2.3	-3%	-0.2%	·	·	-2.1%
22	CC(C)C[C@H](NC(=O)CC[C@H]1O[C@@H](n2ccc(=O)[nH]c2=O)[C@H](O)[C@@H]1O)C(=O)O	·	-4.2	·	4.8%	·	·	-0.3%
23	COC(OC)C(C)NC(=O)NC(=O)c1ccccc1Cl (stereo unspecified)	13%	-1.5	9%	0.7%	4%	0.0	1.0%
24	COc1ccc(C(=O)Nc2ccccc2C(N)=O)cc1	4%	-2.9	-14%	9.9%[38.3 µM]	23%	-0.4	-3.1%
25	CN(C(=O)COC(=O)c1ccccc1SCC(=O)N1CCCC1)C1CCS(=O)(=O)C1 (stereo unspecified)	17%	-2.2	-7%	1.5%	-39%[inhibitor]	·	-1.5%
26	Cc1[nH]c(=O)[nH]c(=O)c1S(=O)(=O)N1CCCC(C(=O)NCc2ccccc2Cl)C1 (stereo unspecified)	1%	-7.1	9%	1.3%	-2%	-1.2	-7.3%
27	O=C(O)c1ccc(NC(=O)c2cn(-c3ccccc3)nc2-c2ccc(Cl)cc2)cc1	7%	3.0	-102%	0.3%	14%[15.4 µM]	-1.2	·
28	Cc1c(NC(=O)C(C)N2C(=O)C3C4C=CC(C4)C3C2=O)c(=O)n(-c2ccccc2)n1C (stereo unspecified)	9%	-2.7	4%	-0.2%	-69%[inhibitor]	3.2	0.9%
29	COc1ccc(CNC(=O)c2c(O)c3cccc4c3n(c2=O)CCC4)cc1	0%	1.5	12%	-1.1%	4%	-2.8	-2.4%
30	CC1CCC(NC(=O)CCCCn2c(=O)[nH]c3ccsc3c2=O)CC1 (stereo unspecified)	13%	6.8	8%	2.7%	?	1.0	·
31	COC(=O)c1c(C(=O)OC)c(-c2cccc(Cl)c2)n2c1CS(=O)C2 (stereo unspecified)	10%	1.7	-3%	-1.2%	2%	1.2	·
32	COc1cc(C(=O)NNC(=O)COc2ccc(C)cc2)ccc1OCC(=O)N1CCOCC1	·	-2.1	11%	0.3%	-13%	·	-2.7%
33	CCOC(=O)c1cc(OCC)c2c(ccc3cc(OC)ccc32)n1	·	-7.7	·	7.5%	?	·	4.2%
34	COc1cc2c(cc1OC)C1CC(=O)C(CC(C)C)CN1CC2 (stereo unspecified)	-1%&-11%	7.0	6%	0.0%	3%	1.9	-2.4%
35	O=S(=O)(c1ccc(Oc2ccc(F)c(Cl)c2)nc1)N1CCOCC1	·	-4.0	7%	-0.6%	8%	·	-1.1%
36	Cc1ccc2nc(CCc3nc4ccc(C)cc4[nH]3)[nH]c2c1	7%	-2.1	-2%	2.5%	-7%[15.4 µM]	4.3	-0.4%
37	CC(NC(C)c1ccccc1Cl)C(=O)Nc1cccc(S(=O)(=O)N2CCCCC2)c1 (stereo unspecified)	·	-1.2	-11%	0.8%	16%	·	1.6%
38	O=C(CS(=O)CC(=O)Nc1cccnc1)Nc1ccc(F)cc1 (stereo unspecified)	-1%	-1.3	8%	-1.4%	0%	0.8	·
39	Cc1nnc(NC(=O)CN2CCN(Cc3c(Cl)cccc3Cl)CC2)s1	6%	-1.0	11%	0.6%	3%[15.4 µM]	-5.6	-0.1%
40	CCOc1ccc(NC(=O)COC(=O)CC2CC3CCC2C3)cc1 (stereo unspecified)	·	-3.0	15%	0.6%	39%	·	0.3%
41	Cc1onc(-c2c(F)cccc2Cl)c1C(=O)N=C(N)N1CCCC1	3%	-4.7	-1%	1.6%	-10%[15.4 µM]	1.8	·
42	Cc1ccc(C(=O)N(Cc2sccc2C)C2CCS(=O)(=O)C2)cc1 (stereo unspecified)	12%	-10	-10%	2.2%&-0.8%	18%	·	1.2%&-2.9%
43	Cc1ccc(S(=O)(=O)N2CCCC(C(=O)Nc3cccnc3)C2)cc1 (stereo unspecified)	4%	-0.6	-26%	·	-8%	2.9	-2.0%
44	CCn1c(COc2ccccc2C)nnc1SCC(=O)OC	15%	-1.0	0%	2.0%[38.3 µM]	41%	-2.0	-0.2%
45	O=C(CSc1ncn[nH]1)OCN1C(=O)c2ccccc2C1=O	-21%	-0.6	4%	12%[38.3 µM]	5%	-0.8	-4.0%
46	COc1ccc(C(CNC(=O)Cc2ccc3ccccc3c2)N(C)C)cc1 (stereo unspecified)	11%	-4.8	3%	1.2%	0%[15.4 µM]	·	·
47	O=C(CSc1ncccn1)Nc1cc(Cl)ccc1[N+](=O)[O-]	5%	9.9	·	-0.6%	9%[15.4 µM]	2.3	·
48	CCOC(=O)c1ccc(NC(=O)/C=C/c2cccs2)cc1	?	5.1	?	-2.4%	?	1.4	·
49	CC(C(=O)Nc1cccc([N+](=O)[O-])c1)N(c1ccccc1)S(C)(=O)=O (stereo unspecified)	15%	-1.2	3%	3.8%	?	0.1	·
50	CCOC(=O)C(=O)Nc1ccc2c(c1)OCO2	8%	-0.6	18%	-0.6%	-2%	2.7	1.4%
51	O=C(C1CCN(S(=O)(=O)Cc2ccccc2)CC1)N1CCCc2ccccc21	-1%	-4.7	-14%	-1.2%	13%	-0.1	-0.1%
52	CC1(C)c2ccccc2-n2c1cc1oc(=O)cc(O)c1c2=O	89µM*	0.8	-4%	-0.4%	?	6.7	·
53	Nc1ncnc2c1ncn2[C@H]1CC[C@@H](CO)O1	9%&20%	1.0	15%	1.7%&1.2%	·	4.1&3.9	0.6%
54	CC(C)c1ccc(CNC(=O)CSCC(=O)Nc2ccc3ccccc3c2)cc1	7%	2.4	-21%	4.9%[38.3 µM]	6%	0.7	-1.9%
55	O=C1C(c2ccncc2)=C(O)c2ccccc21	-19%	3.6	-2%	0.9%	10%	2.7	-2.0%
56	O=C(O)c1ccc(S(=O)(=O)N2CCN(c3ccccn3)CC2)cc1	6%	2.4	8%	-0.4%	-14%	-7.9	-1.6%
57	Cc1ccc(C)c(NC(=O)c2cnn3ccccc23)c1	3%	0.2	-7%	8.0%	-23%	1.8	-2.7%
58	CSCC(=O)NC1CCCc2c1cnn2-c1cc(F)cc(F)c1 (stereo unspecified)	-3%	-1.1	3%	0.4%	-1%	-0.7	0.7%
59	C[C@H](NC(=O)CCn1nnc2ccccc2c1=O)C(=O)O	5%	1.2	7%	0.9%	-35%[inhibitor]	4.0	-1.1%
60	Cc1nc(NC(=O)COC(=O)CCS(=O)(=O)c2ccccc2Cl)c(Cl)cc1Cl	-17%	1.3	-4%	-1.3%[38.3 µM]	2%	2.2	-9.6%
61	Cc1cc2c(c(/C=C/C(=O)c3ccccc3)c1)OC1(C=C2)Oc2ccccc2C(=O)N1C (stereo unspecified)	-2%	-5.5	-13%	0.6%	-2%[15.4 µM]	0.6	·
62	Cc1ccc(CNC(=O)Nc2ccc(F)cc2F)n1C	9%	1.0	10%	1.9%	-6%	-16	-14%
